# Screening results (PubChem)
# Sfp inh = qHTS Assay for Inhibitors of Bacillus subtilis Sfp phosphopantetheinyl transferase (PPTase); 4'-phosphopantetheinyl transferase ffp (Bacillus subtilis), Q9F4F7; Biochemical Sfp PPTase activity, qHTS; Potency, µM, without a hit: max response, negative = inhibition, actives largely listed as inhibitors; 3.5% of 310,000 active; active means well fitted inhibition curve with a large enough effect; inconclusive means small, poorly fitted or top-dose-only effect, or another doubt; inactive means no such curve, though single readings can be large or run the other way;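 further: the enzyme is Sfp with the accession as filed and its product quenches rhodamine fluorescence; potency means the concentration at half of the fitted maximal effect; 0% = enzyme reaction without inhibitor and -100% = no enzyme wells; top concentration of the series not given in the record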
#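 Fluorescence-quenching assay with 15 nM Sfp, 5 uM rhodamine-CoA and 12.5 uM BHQ-2-labelled ybbR peptide in pH 7.6 Hepes/MgCl2 buffer. Enzyme was pre-incubated with compound for 15 min at room temperature. Rate was taken from the 30-min fluorescence change (525/598 nm).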
# CtBP-E1A inh = qHTS Assay for Inhibitors of the CtBP/E1A Interaction | CtBP / adenovirus E1A interaction (AlphaScreen) | AlphaScreen GST-E1A/His-CtBP binding, 1536-well; active compounds read low; control for the full effect not named in the record | activity change, % (no concentration beside the values) | 0.49% of 340,000 active | AID 651724, 2012; in the data active means activity change below about -65%; inconclusive means about -30% to -65%; inactive means above about -30%; further: on the % scale 0 is the no-effect control and ±100 the full control effect
#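 GST-E1A and His-tagged CtBP (125 nM each as 5X stock) were preincubated with pin-transferred compound for 2 h at 37 °C in the dark, then glutathione donor and nickel acceptor beads were added for 1 h before AlphaScreen reading.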
# D2 PAM = Beta-Arrestin HTS for Positive Allosteric Modulators of the Human D2 Dopamine Receptor: Potentiators | AID 624464, 2012 | D(2) dopamine receptor (Homo sapiens), P14416 | 0.23% of 360,000 active | potentiation, % (test concentration not listed) | DiscoveRx D2 beta-arrestin cells, luminescence, 90 min; 100% = 57 uM dopamine signal; active = potentiation of 50% or more; inconclusive = 30% to 50%; inactive = 30% or less;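 further: compound concentration not given in the record; tested on top of an EC20 dose of dopamine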
# Target sequence (P14416 whole entry, looked up): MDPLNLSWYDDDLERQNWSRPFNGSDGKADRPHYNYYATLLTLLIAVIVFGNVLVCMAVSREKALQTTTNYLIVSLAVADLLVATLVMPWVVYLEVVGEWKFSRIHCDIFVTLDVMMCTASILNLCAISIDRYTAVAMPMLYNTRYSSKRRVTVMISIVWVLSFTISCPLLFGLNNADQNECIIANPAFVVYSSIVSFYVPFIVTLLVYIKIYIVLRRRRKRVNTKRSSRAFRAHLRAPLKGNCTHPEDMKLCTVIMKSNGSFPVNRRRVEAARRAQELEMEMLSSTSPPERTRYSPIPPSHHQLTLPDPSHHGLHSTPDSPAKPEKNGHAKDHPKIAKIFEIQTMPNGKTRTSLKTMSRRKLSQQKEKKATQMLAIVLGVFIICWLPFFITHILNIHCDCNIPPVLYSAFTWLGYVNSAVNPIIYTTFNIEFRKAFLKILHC
#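 PathHunter D2 cells, attached overnight at 37 deg C, received compound in DMSO plus dopamine at EC20 (50 nM final) for 90 min at 37 deg C. Beta-arrestin recruitment was read as luminescence after 1 h with detection reagent at ambient temperature.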
# PINK1 modulator = A Quantitative High throughput Screen to Identify Chemical Modulators of PINK1 Expression. PINK1 immunofluorescence, high-content cytometry, 24 h. AID 624263, 2012. Potency, µM (series often up to 76.6 µM), without a hit: at the highest dose activation (PINK1 increase), hits mostly activators. 0.2% of 410,000 active; active = well fitted activation curve with a large enough effect; inconclusive = small, poorly fitted or top-dose-only effect; inactive = flat fitted curve, though single readings scatter; cell line not stated here;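 further: potency means the concentration at half of the fitted maximal effect; % of control where 0% means no effect; nearly all actives have a fitted effect of over 65% in size; a mitochondrial uncoupler was the plate control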
#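 A stable cell line was treated with compounds at 5 concentrations for 24 hours, with CCCP as control. PINK1 levels and mitochondrial localization were measured by immunofluorescence with mitochondrial, cell and nuclear markers after fixation, read by laser-scanning cytometry.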
# TRPV1 PAM = HTS Assay for Compounds that Act as Potentiators of the Vanilloid Receptor 1; Transient receptor potential cation channel subfamily V member 1 (Homo sapiens), Q8NER1; TRPV1-expressing cells, Fluo-8 calcium influx, capsaicin EC20 potentiation; host cell line not named in the record; control for the full effect not named in the record; potentiation, % at 8.33 µM; 0.02% of 320,000 active; AID 540277, 2011; active means potentiation above 80%; inconclusive means 30% to 80%; inactive means below 30%; further: 0% is about no effect
#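 Fluo-8 calcium influx in TRPV1-expressing cells, kinetic read (ex 480/em 520 nm). Compound added and read 3 min for agonist activity, followed by capsaicin at EC20 final and 2 min further read for enhancement.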
# D2 agonist = Beta-Arrestin HTS for Positive Allosteric Modulators of the Human D2 Dopamine Receptor: Agonists; D(2) dopamine receptor (Homo sapiens), P14416; DiscoveRx PathHunter D2 beta-arrestin, luminescence, 90 min; 100% = 57 uM dopamine signal; activation, % (test concentration not listed); 0.084% of 360,000 active; AID 624465, 2012; in the data active = activation above about 40%; inconclusive = about 15% to 40%; inactive = below about 15%; further: compound concentration not given in the record; the text of the record calls up to 30% inactive
#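 Agonist mode: compounds alone added to overnight-plated D2 PathHunter cells for 90 min at 37 C, with 57 uM final dopamine (EC100) defining full response. Beta-arrestin recruitment detected by chemiluminescent reagent, read after 1 h at ambient temperature.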
# Six1-Eya2 blk = qHTS Assay for Inhibitors of the Six1/Eya2 Interaction; activity change, % (concentration not given with the values); Homeobox protein SIX1 (Homo sapiens) + Protein phosphatase EYA2 (Homo sapiens), …; AID 651725, 2012; AlphaScreen GST-Six1/His-Eya2 binding, biochemical; active compounds read low; control for the full effect not named in the record; 0.56% of 360,000 active; in the data active = activity change below about -65%; inconclusive = about -30% to -65%; inactive = above about -30%; further: on the % scale 0 is the no-effect control and ±100 the full control effect
#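 Six1/Eya2 binding was read as AlphaScreen signal after compounds were pinned into GST-Six1 plus His-tagged Eya2 (5X stock 250/500 nM) in pH 8.0 Tris/NaCl/TCEP buffer, beads added, then incubated 1 h, 37 C, dark.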
# Active calls of the source: *; ? = inconclusive; . = not tested or not shown; [ ] = dose if it differs, or a comment.
molecule,Sfp inh,CtBP-E1A inh,D2 PAM,PINK1 modulator,TRPV1 PAM,D2 agonist,Six1-Eya2 blk
CC1(C)C(=O)OC(/C=C\c2ccccc2)C(C)(C)C1=O (centres undefined),21%,12,-1,2.2%,-9,-5.3,0
Cn1cc(CN2CCCC(C(=O)c3cccs3)C2)c(-c2cccc(Cl)c2)n1 (centres undefined),9%,-9,-4,4.7%,-11,-1.0,-18
CCOC(=O)N1CCC(NC(=O)c2cnn3cccnc23)CC1,6%,3,-10,-0.6%,-1,-2.9,9
CSc1ccccc1C(=O)NCCCOC(C)C,27%,7,-5,-0.4%[38.3 µM],-1,1.6,6
O=C(CCc1ccccc1)Nc1ccc2ccccc2n1,7%,11,0,0.8%,1,0.4,8
O=C(N/N=C/C=C/c1ccccc1[N+](=O)[O-])c1ccncc1,26%,-11,-3,0.4%,-7,2.8,-4
COc1ccc(N(CC(=O)Nc2ccc3c(c2)OCO3)S(=O)(=O)c2c(C)nn(C)c2C)cc1,-1%,1,-11,-0.7%,10,-4.6,-1
O=C(O)CCNC(=O)C12CC3CC(CC(C3)C1)C2,4%,-6,3,0.4%,26,0.9,14
NC(=O)COC(=O)CCSc1ccc(Cl)cc1,16%,-24,-3,-0.8%,-2,-2.3,-19
O=c1[nH]c2cc3c(cc2cc1C(c1nnnn1Cc1ccccc1)N1CCCc2ccccc21)OCO3 (centres undefined),-6%,-2,-1,11%[38.3 µM],-29,2.2,-1
Cc1cccc(C)c1NC(=O)C1(N(Cc2ccco2)C(=O)CC2NC(=O)NC2=O)CCCCC1 (centres undefined),9%,3,2,-1.0%,0,-1.4,4
CC(/C=N/NC(=O)c1cnccn1)=C\c1ccco1,-16%,-17,-5,-0.7%,18,1.4,-9

# Structural class, the compounds so far with a Cl atom (two)
molecule,Sfp inh,CtBP-E1A inh,D2 PAM,PINK1 modulator,TRPV1 PAM,D2 agonist,Six1-Eya2 blk
Cn1cc(CN2CCCC(C(=O)c3cccs3)C2)c(-c2cccc(Cl)c2)n1 (centres undefined),9%,-9,-4,4.7%,-11,-1.0,-18
NC(=O)COC(=O)CCSc1ccc(Cl)cc1,16%,-24,-3,-0.8%,-2,-2.3,-19

# Following part.
molecule,Sfp inh,CtBP-E1A inh,D2 PAM,PINK1 modulator,TRPV1 PAM,D2 agonist,Six1-Eya2 blk
O=C/C(=C\Nc1ccc(Cl)cn1)c1nc2ccccc2o1,?,0,-8,2.6%,-21,-3.1,-7
CCN1C(=O)[C@@H]2[C@@H](c3ccc(-c4ccc(OC)cc4)cc3)N3CCC[C@@]3(C(=O)OC)[C@@H]2C1=O,.,.,0,0.5%,6,-2.3,-14
CC1CCCc2sc3nc(NCc4ccco4)n4ncnc4c3c21 (centres undefined),-29%,-19,-5,2.2%,-3,-2.4,-16
COCCCNC(=O)COc1ccc(Br)cc1Cl,2%,8,-12,0.7%,9,-2.9,8
O=C(N1CCCCCC1)N1CCN(S(=O)(=O)N2CCOCC2)CC1,12%,-3,-13,-1.9%,-13,-2.8,4
COc1ccc(CCNC(=O)c2ccc3c(c2)OCCO3)cc1,5%,-3,-3,-0.4%,-14,1.1,3
CN1CCCN(Cc2ccccc2Br)CC1,79µM*,9,-17,0.3%,?,-1.4,-4
COc1ccccc1N1CCN(C(=S)NC(=O)c2ccc([N+](=O)[O-])cc2)CC1,.,1,-8,2.0%,.,-3.0,-12
COc1ccccc1N1CCN(c2ccc(S(=O)(=O)N3CCN(C)CC3)cn2)CC1,.,-16,-3,-2.7%,.,5.6,-11
CCC(=O)N1C(=O)CCN(C(C)=O)c2ccccc21,4%,2,6,2.4%,-3,-0.7,-2
Cc1ccnc(NC(=O)CCC(=O)N(CC(=O)NC(C)(C)C)c2ccc3c(c2)OCO3)c1,16%,-20,-9,-0.4%,-2,-0.2,-1
CC(C)C(NC(=O)c1ccccc1)C(=O)NCc1ccccn1 (centres undefined),3%,-2,2,6.6%[38.3 µM],-7,-0.4,0
Cc1cccc(OCC(=O)N(C)CC(=O)Nc2cccc(F)c2)c1C,.,.,-13,0.2%,-14,-1.9,3
CC(C)N(C(=O)COC(=O)c1cccnc1Cl)c1ccccc1,.,-5,-35,-0.4%,.,-1.4,7
CCN1CCN(CC(=O)N2N=C(c3cccs3)CC2c2ccc(OC)c(OC)c2)C(=O)C1=O (centres undefined),10%,-18,2,4.6%,?,-2.3,-12
O=C(Cc1ccccc1)NC1CCN(C(=O)c2ccc([N+](=O)[O-])cc2)CC1,1%,1,-3,-0.8%,22,0.0,12
CCOC(=O)N1C/C(=C\c2ccccc2)C(=O)/C(=C/c2ccccc2)C1,-19%,.,-18,21%,-12,-1.9,3
COc1ccccc1CNC(=O)C1COc2ccccc2O1 (centres undefined),9%,13,-13,-2.5%,-10,-1.8,1
CC(=O)Nc1ccc(C(=O)CS(=O)(=O)c2ccc(C)cc2)cc1,2%,6,-2,1.1%,-3,-0.8,3
CC(C)C[C@H](NC(=O)c1[nH]cnc1C(=O)Nc1ccc(Cl)cc1)C(=O)OC(C)(C)C,25%,-8,-1,-1.4%,-14,-2.6,2
C=CCSC1=Nc2cc(OC)c(OC)cc2C2=NC(=O)CN12,-10%,.,-6,1.3%,3,-2.8,7
COc1ccc(OC)c(NC(=O)CCN2CC(C)OC(C)C2)c1 (centres undefined),5%,4,-15,-1.9%,-3,-0.5,1
O=C(O)c1csc(N/N=C/c2ccc(Br)cc2)n1,3%,-12,-4,1.7%,-5,-1.1,-11
COc1cc(C(=O)Nc2ccc(Cl)c([N+](=O)[O-])c2)cc(OC)c1OC,16%,-6,-17,14%,10,1.4,-11
Cc1ccc(SCC(=O)NNC(=O)CCS(=O)(=O)c2ccccc2)cc1,.,5,-27,-2.2%,.,1.0,0
CSc1ccccc1NC(=O)CN(C)CC(=O)Nc1c(F)cccc1F,-58%,1,-13,2.4%,2,-4.0,6
COc1cc(COc2ccc3c(C)c(Cc4ccccc4)c(=O)oc3c2)cc(OC)c1OC,14%,13,-11,1.1%,9,0.9,-4
CC(=O)Nc1ccc(N2CCOCC2)c(S(=O)(=O)Nc2ccccc2Cl)c1,.,-1,-5,-0.4%,.,-1.0,3
CC(O)[C@H]1CC[C@H]2[C@@H]3CC[C@H]4C[C@H](O)CC[C@]4(C)[C@H]3[C@H](O)C[C@]12C (some centres undefined),.,-8,-8,0.4%,14,-8.5,11
NS(=O)(=O)c1cccn1-c1ncc(C(F)(F)F)cc1Cl,?,1,-16,-0.3%,?,-1.9,0
COc1ccc(NC(=O)NN2CCOCC2)cc1OC,23%,-10,0,-1.4%,0,-1.3,-4
COc1cc(OC)cc(C(=O)Nc2ncn[nH]2)c1,.,2,-8,0.3%,12,1.8,-3
CCCCCCCCCCCCCCCC[n+]1ccc(C(N)=O)cc1,?,-12,-27,?,-16,-4.1,11
Cc1ccccc1C(=O)Nc1cc(S(=O)(=O)N2CCCCC2)ccc1N1CCN(C)CC1,-4%,16,2,-0.1%,-19,-8.3,5
Cc1c(CC(=O)NCCCC(=O)O)c(=O)oc2c(C)c3oc4c(c3cc12)CCCC4,9%,.,-3,-0.1%,18,-3.2,-11
CCNC(=O)CN1C(=O)NC2(CCOc3ccccc32)C1=O (centres undefined),4%,-7,-4,1.9%,-2,-1.8,1

# The last 2 compounds of the part before open the next one.
molecule,Sfp inh,CtBP-E1A inh,D2 PAM,PINK1 modulator,TRPV1 PAM,D2 agonist,Six1-Eya2 blk
Cc1c(CC(=O)NCCCC(=O)O)c(=O)oc2c(C)c3oc4c(c3cc12)CCCC4,9%,.,-3,-0.1%,18,-3.2,-11
CCNC(=O)CN1C(=O)NC2(CCOc3ccccc32)C1=O (centres undefined),4%,-7,-4,1.9%,-2,-1.8,1
O=C(Nc1nc2ccccc2[nH]1)Nc1ccccc1F,2%,3,-3,1.8%,0,0.1,10
CCOc1ccc(C(=O)NNC(=O)C2CC(=O)N(c3ccc(C)cc3)C2)cc1 (centres undefined),.,-14,-14,-2.4%,13,-0.8,5
O=C(Cn1cc(COc2ccc(Cl)c(Cl)c2)nn1)NS(=O)(=O)c1ccccc1OC(F)(F)F,.,-16,-2,0.8%,.,2.3,2
Cc1cccc(C(=O)NCCCNC(=O)c2ccccn2)c1,1%,-1,-1,0.5%,7,0.0,4
O=C(Nc1cccnc1)c1ccccc1-c1nc(-c2ccccc2F)no1,13%,-1,-4,0.3%[38.3 µM],-15,-0.5,-1
CSCCNC(=O)C1(C)CCN1C(=O)c1sccc1C (centres undefined),.,1,0,-0.1%,.,4.3,3
COc1ccc(CNCCCC(=O)Nc2c(Cl)ccc(C)c2Cl)cc1OC,-16%,-6,-21,0.0%,?,-3.0,-8
Cn1c(C2CCCN2C(=O)OC(C)(C)C)n[nH]c1=S (centres undefined),?,-9,-9,-1.1%,0,1.5,-3
COc1ccc(N(CCC(=O)NCCc2ccccc2)S(=O)(=O)c2ccc(C)cc2C)cc1,.,.,-6,-0.1%,2,-4.0,-4
CCN(C(=O)COC(=O)c1cc(S(=O)(=O)N2CCOCC2)ccc1F)C1CCS(=O)(=O)C1 (centres undefined),.,-15,11,-3.3%,2,-1.9,7
COc1ccc(C(=O)N2C=Cc3ccccc3C2C#N)cc1 (centres undefined),.,1,-9,4.0%,.,-2.3,-2
CCOc1ccc(NC(=O)c2cccc3c2C(=O)N(CCOC)C3)cc1,17%,3,-16,4.1%,3,-2.5,1
CCOCCCNCc1ccc(Cl)cc1,-22%,2,-22,-0.9%,8,-0.1,2
O=C(O)c1cnn2c(-c3ccc(F)cc3)ccnc12,-23%,2,-2,2.0%,2,-1.7,11
O=C(/C=C/c1ccco1)N(Cc1cccc(Cl)c1)C1CCS(=O)(=O)C1 (centres undefined),32µM*,8,-7,1.2%,-3,1.0,-2
